NPYLR7 ag – activates Aedes aegypti NPYLR7 receptor; HEK293T NPYLR7/Galpha15, GCaMP6s calcium fluorescence; activation, % at 10 µM; actives 0.15% (n = 270,000); AID 1259423; in the data active = activation above about 40%;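 also: 0% = vehicle and 100% = reference agonist at the receptor; some compounds past the cut are filed as inactive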
NPYLR7 ag max-min – also measured in NPYLR7 ag; calls as there; activation, %; measured here: Max-Min RFU normalised activation; some inactives read as strong as hits;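 span of the calcium signal over five minutes; 0% = vehicle and 100% = native peptide agonist; compound fluorescence can raise it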
Numbers without * were called inactive; & = joins results of further samples.

structure | NPYLR7 ag | NPYLR7 ag max-min
Cc1cc2c(F)ccc(C)c2nc1-c1cc(F)c2c(c1)CC(CN)O2 (stereo not given) | 5 | 3
CC(=O)N1CCN(c2ncnc3c2nnn3-c2ccc(F)cc2)CC1 | -7 | -13
CCOC(=O)CN1CCN(c2ccc3c(c2)OCO3)C(=O)C1C (stereo not given) | -1 | 3
O=C1CCN(Cc2nc(Cc3ccccc3Cl)no2)C(=O)N1 | 2 | 1
CC(=O)c1ccc(N2CCN(C(=O)c3ccc(NC(=O)CSc4nncn4C)cc3)CC2)cc1 | 5 | 4
N#Cc1ccsc1NC(=O)Cc1csc(-c2ccccc2)n1 | 0 | 8
Cc1cc(N(C)Cc2ccoc2)nc(N2CCOCC2)n1 | 22 | 10
Cc1ccsc1CN(Cc1ccc(F)cc1)C(=O)CNCCN1CCOCC1 | 7 | 6
COc1nc(C)cc(C)c1CNC(=O)CCC(=O)NC1CCCC1 | 7 | -4
CC(C)(CO)CNc1ccn2nccc2n1 | 3 | 4
CC(NC(=O)C(C)N1CCN(C)CC1C)c1ccc2c(c1)CCCC2 (stereo not given) | 5 | 6
Cc1cc(=O)n(CC(=O)N(C)Cc2ncc[nH]2)c2ccccc12 | -5 | -7
CCCn1c(-c2nnc(CC)o2)cc2ccccc21 | -9 | -5
O=S(Cc1coc(-c2ccccc2)n1)Cc1ccccc1F (stereo not given) | -4 | -4
COC(=O)c1ccc(Oc2ncnc3sc(C)c(-c4ccccc4)c23)cc1 | -10 | -1
N#Cc1ccnc(N2CCN(CN3C(=O)CC4(CCCCC4)C3=O)CC2)c1 | 5 | 5
CC(=O)Nc1ccc(CN2CCC2(C)C(=O)Nc2cccc(NS(C)(=O)=O)c2)cc1 (stereo not given) | 7 | 1
Cc1ccc(NCc2ncc(C(C)(C)C)o2)c(Cl)c1 | -1 | -1
O=S(=O)(NCc1ccc2[nH]c3c(c2c1)CCCC3)C1CC1 | -4 | -5
Cc1cc(F)ccc1NC(=O)CCC1CCCN(Cc2cn[nH]c2-c2cccc(F)c2)C1 (stereo not given) | 16 | 11
Cc1ccc(S(=O)(=O)Nc2ccc(Nc3nccn4c(-c5cccc6ccccc56)cnc34)cc2)cc1 | -3 | -8
CCOc1ccc(C(=O)c2c(N)c(C(=O)Nc3cccc(C)c3C)c3ccccn23)cc1 | -3 | -7
N#CC1C(=N)Oc2n[nH]c(-c3ccc(F)cc3)c2C1c1cn[nH]c1-c1ccc(F)cc1 (stereo not given) | 0 | -2
O=C(NCc1cccnc1)Nc1cccc([N+](=O)[O-])c1 | 7 | 5
CCOCCOc1nc(-c2cccc(C(F)(F)F)c2)n(-c2cccc(NC(=O)c3cccc(OC)c3)c2)n1 | 7 | 7
CCC1CCCCN1CCCNC(=O)c1c(O)nc2c(C)cccn2c1=O (stereo not given) | -4 | -1
Cc1csc2ncc(C(=O)N3CCc4ccccc43)c(=O)n12 | 7 | 3
CCC(C)NC(=O)COc1ccc2c3c(c(=O)oc2c1)CCC3 (stereo not given) | 5 | 5
COCCn1c(SCc2cccc(Br)c2)nnc1-c1cc(-c2ccccc2)nc2ccccc12 | -6 | -10
COc1cccc(OC)c1C(=O)N1CCN(c2nc(Cc3ccccc3)nc3c2c(C)nn3-c2ccc(F)cc2)CC1 | 2 | 9

Copied from the list:
Cc1cc2c(F)ccc(C)c2nc1-c1cc(F)c2c(c1)CC(CN)O2 (stereo not given) in NPYLR7 ag reads 5
CCOCCOc1nc(-c2cccc(C(F)(F)F)c2)n(-c2cccc(NC(=O)c3cccc(OC)c3)c2)n1 in NPYLR7 ag reads 7
N#CC1C(=N)Oc2n[nH]c(-c3ccc(F)cc3)c2C1c1cn[nH]c1-c1ccc(F)cc1 (stereo not given) in NPYLR7 ag max-min reads -2
Cc1csc2ncc(C(=O)N3CCc4ccccc43)c(=O)n12 in NPYLR7 ag reads 7
O=S(Cc1coc(-c2ccccc2)n1)Cc1ccccc1F (stereo not given) in NPYLR7 ag reads -4
N#Cc1ccnc(N2CCN(CN3C(=O)CC4(CCCCC4)C3=O)CC2)c1 in NPYLR7 ag reads 5

Next section:
structure | NPYLR7 ag | NPYLR7 ag max-min
O=c1c(-c2ccc(Br)cc2)[n+]([O-])c2ccccc2n1OCc1c(F)cccc1F | 9 | 6
O=C(Nc1cccc(C2SCC(=O)N2c2ccc3c(c2)OCCO3)c1)c1ccc(Cl)cc1Cl (stereo not given) | 5 | 11
CCOC(=O)C1CCN(C(c2ccccc2)C2Sc3nc(-c4ccco4)nn3C2=O)CC1 (stereo not given) | -9 | -10
CCNc1nc(-c2cc(C)n(-c3cc(C)on3)c2C)cs1 | 0&0 | 2&1
O=S1(=O)CCC(Cn2ccnc2-c2cc(CN3CCCC3)cs2)C1 (stereo not given) | -1 | 0
Cc1nonc1CN(C)Cc1cn(C)nc1-c1ccc2c(c1)OCCO2 | -7 | -8
CCC(C)C(NC(=O)c1ccc(Cl)c(Cl)c1)C(=O)Nc1nnc(-c2cccc(Cl)c2)s1 (stereo not given) | 16 | 14
CCCC(O)CN1CCC(=O)N(CCOC)Cc2cc(F)ccc21 (stereo not given) | 14 | 21
COc1ccc(CCN2C(=O)N(C)C(=O)C23CCN(Cc2cnn(-c4ccc(F)cc4)c2)CC3)cc1 | -2 | -1
COCCCN(CC(=O)N1CCc2sccc2C1c1ccc(Cl)cc1Cl)C(=O)c1cccc(C(F)(F)F)c1 (stereo not given) | -1 | 2
CC(Nc1cccc(Cl)c1)C(=O)Nc1ccc2ccccc2c1 (stereo not given) | 4 | 4
CCCN(CC(=O)N(Cc1cccn1Cc1cccc(OC)c1)C(C)CC)C(=O)c1ccc([N+](=O)[O-])cc1 (stereo not given) | 10 | 15
Cc1nn(CC(=O)Nc2ccccc2C(F)(F)F)c(C)c1[N+](=O)[O-] | -2 | -4
CN(CC(=O)c1ccc2[nH]c(=O)[nH]c2c1)Cc1cccc(Cl)c1Cl | 12 | 9
CCn1c(C2CCN(S(=O)(=O)c3cn(C)c(C)n3)CC2)nn(C)c1=O | 7 | -1
COc1ccccc1Oc1cc(N2CCN(C(=O)C(C)Cl)C(C)C2)ncn1 (stereo not given) | -11 | -6
CC(=O)N1CCc2c(sc(NC(=O)Cc3ccccc3)c2-c2nc3ccccc3s2)C1 | 3 | -1
Cc1ncsc1CCN(C)C(=O)c1cn(-c2ccccc2)nn1 | -1 | -11
CC(C)(C)C(=O)CSc1nc2sc3c(c2c(=O)[nH]1)CCCC3 | 1 | 6
O=S(=O)(NCC1(c2ccccc2)CCOCC1)c1cccs1 | 1 | 2
CSc1nnc(SCc2csc(Cc3ccc(C)cc3)n2)s1 | 5 | 4
CCc1ccc(CNC(=O)Nc2cc(C(=O)NC)ccc2Cl)s1 | 5 | 4
Cc1nc(-c2ccccc2)nc2[nH]c(-c3ccccc3)cc12 | 2 | 1
CCC(C)c1ccc(C2=CSC3=NS(=O)(=O)CCN23)cc1 (stereo not given) | -2 | -3
CCOC(=O)c1c(NC(=O)c2ccc(Cl)c([N+](=O)[O-])c2)sc2c1CCC2 | -4 | -10
OCCC1CN(Cc2nc3ccccc3s2)CCN1C1CCCC1 (stereo not given) | -1 | -3
CCN(CC)S(=O)(=O)c1ccc2c(c1)[nH]c(=S)n2CC | 1 | -1
COCc1ncc([C@@H]2C[C@H](NC(C)=O)C[C@H](C(C)(C)C)O2)cn1 | -6 | -11
CN1CCCN(CC(=O)N(Cc2ccco2)Cc2cccs2)CC1 | 12 | 7
CCC(CO)N(Cc1ccsc1)Cc1sccc1C (stereo not given) | -1 | -1

Grouped by structure: those above containing a CF3 group
structure | NPYLR7 ag | NPYLR7 ag max-min
CCOCCOc1nc(-c2cccc(C(F)(F)F)c2)n(-c2cccc(NC(=O)c3cccc(OC)c3)c2)n1 | 7 | 7
COCCCN(CC(=O)N1CCc2sccc2C1c1ccc(Cl)cc1Cl)C(=O)c1cccc(C(F)(F)F)c1 (stereo not given) | -1 | 2
Cc1nn(CC(=O)Nc2ccccc2C(F)(F)F)c(C)c1[N+](=O)[O-] | -2 | -4

A run of entries from further up:
structure | NPYLR7 ag | NPYLR7 ag max-min
O=c1c(-c2ccc(Br)cc2)[n+]([O-])c2ccccc2n1OCc1c(F)cccc1F | 9 | 6
O=C(Nc1cccc(C2SCC(=O)N2c2ccc3c(c2)OCCO3)c1)c1ccc(Cl)cc1Cl (stereo not given) | 5 | 11

(list continues)
structure | NPYLR7 ag | NPYLR7 ag max-min
CCOc1ccccc1CN1CCNC(=O)C1CC(=O)N1CCc2ccccc2C1 (stereo not given) | 7 | 6
Cn1cnnc1CNc1cc(C(F)(F)F)nc2ccccc12 | 6 | 6
COc1ccc(-c2nnc(SCc3ccc(Cl)cc3)[nH]c2=O)cc1 | -3 | -4
CSc1cccc(CN(C)C(=O)CC2COCCN2)c1 (stereo not given) | -6 | -7
CCOCCCn1c(SCc2cccc(C(=O)O)c2)nc2cc(S(=O)(=O)N3CCCC(C)C3)ccc21 (stereo not given) | 6 | 4
O=C(c1onc2ccccc12)N1CCCC(OCc2cccnc2)C1 (stereo not given) | -2 | -5
Cc1nccc(-c2ccc(NC(=O)/C=C/c3csc(C)n3)cc2)n1 | 3 | 0
Cc1ccc(/C=C/S(=O)(=O)Nc2c(C)c(C)nn2C)cc1 | 3 | 2
COC(=O)c1cc(NC(=O)C(C)Oc2ccc(C)cc2[N+](=O)[O-])cc(C(=O)OC)c1 (stereo not given) | 4 | 4
Cc1ccn2c(NC(=O)Cc3ccc(F)cc3)c(-c3cccc(F)c3)nc2c1 | -3 | -3
CCN1C(=O)NC(c2ccc(Cl)cc2Cl)C2=C1CN(CCC(=O)Nc1ccc(F)cc1)C2=O (stereo not given) | -1 | -1
CCOC(=O)CC(=O)Nc1cccc(-c2cccc(-c3ccc(F)cc3)n2)c1 | 19 | 28
CC1CCCN(C(=O)NC(CC(=O)N(C)C)c2ccccc2)CC1 (stereo not given) | -23 | -25
COc1cccc(-c2nc3ccccn3c2NC(=O)Cc2ccc(F)cc2)c1 | -6 | -6
CCC(OC)C(=O)Nc1n[nH]c(C(F)(F)F)c1C (stereo not given) | -6 | -7
CC(=O)Nc1ccccc1-c1nc2cc(C#N)c(C#N)cc2[nH]c1=O | 3 | 4
Cc1ccc(C(=O)CSc2nnc(C3CC3)n2C2CC2)s1 | 1 | 8
O=C(NC1CCN(c2ccccc2C(=O)NCc2ccccc2F)CC1)c1ccco1 | -7 | -3
CC(=O)Nc1cccc(-n2nnn(CN3CCOCC3)c2=S)c1 | -5 | -6
CC(Sc1nnc2n1CCCCC2)C(=O)NNC(=O)c1ccc(F)cc1 (stereo not given) | 0 | -7
CCOC(=O)c1ccc(NC(=O)c2cc(-c3ccccc3)nc3ccc(C)cc23)cc1 | 2 | -1
COc1ccc(-n2nc(C)c(-c3ccccc3)c2NC(=O)CN(CC(C)C)C(=O)Nc2ccc(F)cc2F)cc1 | -1 | 1
CSc1nnc(SCc2ccc(C(=O)N3C4CCC3CC(Oc3cccc(C#N)c3)C4)cc2)s1 (stereo not given) | 17 | 0
COc1ccc(C(=O)N(Cc2ccccc2)C2CCC(NC(=O)C3CCN(C(=O)CCc4ccccc4)CC3)CC2)cc1 (stereo not given) | 0 | 6
CCCCCCCOc1ccc(C(=O)N2CCN(Cc3cc(=O)c(OCc4ccccc4Cl)co3)CC2)cc1 | 12 | 7
COc1cccc(-c2cc(C(=O)N3CCC(Cc4ccccc4)CC3)n(-c3ccc([N+](=O)[O-])cc3)n2)c1 | -2 | 8
COC(=O)CCSc1nnc(Nc2ccc(C)cc2)s1 | 19 | 11
CCOC(=O)c1cccc(=O)c2c(C)[nH]c(C)c12 | 0 | -2
CCS(=O)(=O)NCCCc1cccc(Br)c1 | 6 | 4
CSc1nnc2n1CCCN2C(C)=O | 11 | 8
CC(=O)NC(=O)c1cc2c(ccc3ccccc32)oc1=Nc1ccc(C(C)=O)cc1 | -7 | -10
CSc1nc2c([nH]c3ccccc32)c(=O)n1-c1ccc(F)cc1 | 1 | 23
Cc1nn(CCCC(=O)O)c(=O)c2cc3sccc3n12 | -9 | -7
Clc1ccc(Cc2noc(-c3cccs3)n2)c(Cl)c1 | 2 | 5
Cc1cc(C(=O)Cn2cnc3c2c(=O)n(C)c(=O)n3C)c(C)n1C1CC1 | 8 | 2
CC(Cl)C(=O)Nc1ccc(N2CCCC2)c(C(=O)NCCc2ccccc2)c1 (stereo not given) | -4 | 0
CN1CCN(C(=O)C2=CN3CCN(Cc4ccccc4C(F)(F)F)C(=O)N=C3O2)CC1 | -5 | -6
CCOc1ccc2cc(C(=O)c3ccc(NC(C)=O)cc3)oc2c1 | -2 | -3
COc1ccccc1-c1cccc(C(=O)NC(C)Cc2ccccn2)c1 (stereo not given) | -4 | -4
Cc1cc(-c2cc3c(n(Cc4cccnc4)c2=O)CCN(C(=O)COc2ccccc2)C3)ccc1F | 20 | 6
Cc1cc2nc(Oc3ccc4ccncc4c3)c3ccccc3n2n1 | 2 | 1
O=C(CC1CCS(=O)(=O)C1)Nc1ccc(F)c(-n2cccc2)c1 (stereo not given) | -4 | -4
Cc1ccc(C(c2ccccc2)N2CCN(C(=O)C(C)(C)C)CC2)cc1 (stereo not given) | -10 | -9
CS(=O)(=O)NC(=O)c1ccn(-c2ccc(Cl)c(Cl)c2)n1 | -2 | -2
CC(C)COCCCNS(=O)(=O)c1ccc2ccccc2c1 | 2 | 0
COc1ccc(-c2nc(-c3ccc(OC)c(OC)c3)no2)cc1 | 12 | 7
CC(C)c1ccc(NC2CCCN(C(=O)c3cnn(C(C)C)c3)C2)cc1 (stereo not given) | 5 | 5
CC(=O)Nc1ccc(-c2nnc(N(C)c3ccccc3)s2)cc1 | -7 | -9
CCOc1ccc(N=C2SC(C(=O)Nc3cccc(OCC)c3)CC(=O)N2C)cc1 (stereo not given) | 7 | 5
CC(=O)N1CCn2nc(C(=O)N(Cc3c(F)cccc3Cl)C3CC3)cc2C1 | 0 | -4
COc1ccccc1CCCNC1CCCNC1 (stereo not given) | 3 | 1

From PubChem

Some of the compounds tested. The share of hits here may be higher or lower than overall.
